UUG fidelity: alters start codon recognition fidelity in yeast | S. cerevisiae UUG-firefly luciferase reporter, luminescence/redox ratio | activity score, % at 18.7 µM | 350,000 compounds, 0.13% hits | AID 602363;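 active = replicate mean at a twofold rise or more, about +100% in these data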;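 also: firefly luciferase made from a UUG start codon reports start codon fidelity; reporter light over untreated wells divided by growth signal over untreated wells; some hits fall short of that in this replicate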
Env fusion inh: blocks HIV Env-driven cell-cell fusion; HeLa-JRFL Env/CEM21 cell fusion, luciferase; inhibition, % at 12.3 µM; 360,000 compounds, 1.1% hits;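 active = mean replicate inhibition score of at least 50 and every replicate individually at or above 50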;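 also: 0% = plate neutral controls and 100% = maraviroc near 300 nM; one replicate is shown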
Numbers without * were called inactive; [ ] = remark or other dose.

Screening O=C(C[C@H]1CC[C@@H](NC(=O)c2cccc(F)c2)[C@@H](CO)O1)Nc1nccs1 returned UUG fidelity -5.2 and Env fusion inh 6.2[16.7 µM].
O=C(NCC[C@@H]1CC[C@@H](NS(=O)(=O)Cc2ccccc2)[C@H](CO)O1)C1CCCC1 was read as UUG fidelity 0.4 and Env fusion inh -3.4[16.7 µM].
For O=C(C[C@@H]1C[C@@H]2c3cc(NC(=O)C4CCC4)ccc3O[C@@H]2[C@H](CO)O1)NCc1ccc(-c2ccccc2)cc1 the results were UUG fidelity -11.1 and Env fusion inh 1.9[16.7 µM].
`C[C@H]1CN([C@@H](C)CO)C(=O)c2cccc(NC(=O)Nc3ccc(C(F)(F)F)cc3)c2O[C@H]1CN(C)Cc1ccc(C(F)(F)F)cc1` gave UUG fidelity 6.6 and Env fusion inh -6.6[16.7 µM].
C[C@H](CO)N1C[C@H](C)[C@@H](CN(C)Cc2ccncc2)Oc2ccc(NC(=O)Nc3ccccc3)cc2C1=O was read as UUG fidelity -4.8 and Env fusion inh 4.4[16.7 µM].
C[C@H](CO)N1C[C@H](C)[C@@H](CN(C)C(=O)Nc2ccc(C(F)(F)F)cc2)Oc2ccc(NS(C)(=O)=O)cc2C1=O was read as UUG fidelity 5.5 and Env fusion inh 8.8[16.7 µM].
COCCOC(=O)N1C(=O)[C@@]2(c3ccccc31)[C@H](C(=O)N1CCc3cc(OC)c(OC)cc3C1)[C@H]1C(=O)O[C@H](c3ccccc3)[C@H](c3ccccc3)N1[C@@H]2c1ccc(O)cc1 was read as UUG fidelity -12.7 and Env fusion inh 9.4[16.7 µM].
C[C@@H]1CN([C@H](C)CO)C(=O)c2cc(NC(=O)CCN3CCOCC3)ccc2O[C@H]1CN(C)S(=O)(=O)c1ccc(F)cc1 was read as UUG fidelity 8.2 and Env fusion inh -11.8[16.7 µM].
`C[C@@H]1CN([C@H](C)CO)C(=O)c2cc(NC(=O)Cc3ccccc3)ccc2O[C@H]1CN(C)C(=O)Nc1ccccc1` gave UUG fidelity 2.4 and Env fusion inh 0.1[16.7 µM].
Screening Cc1ccccc1-c1cnc2c(c1)C(=O)N([C@H](C)CO)C[C@H](C)[C@H](CN(C)C(=O)c1cccnc1)O2 returned UUG fidelity -5.6 and Env fusion inh -3.0[16.7 µM].
For CCCN(C)C[C@H]1Oc2ncc(Br)cc2C(=O)N([C@H](C)CO)C[C@@H]1C the results were UUG fidelity 8.3 and Env fusion inh 6.3[16.7 µM].
Screening COc1cccc(NC(=O)N(C)C[C@@H]2Oc3ncc(C#Cc4ccc(F)cc4)cc3C(=O)N([C@@H](C)CO)C[C@H]2C)c1 returned UUG fidelity 14.9 and Env fusion inh 11.8[16.7 µM].
For CCCN(C)C[C@H]1Oc2ncc(-c3ccccc3F)cc2C(=O)N([C@H](C)CO)C[C@@H]1C the results were UUG fidelity 3.1 and Env fusion inh 28.3[16.7 µM].
`COc1cccc(NC(=O)N(C)C[C@@H]2Oc3ncc(C#Cc4ccc(F)cc4)cc3C(=O)N([C@H](C)CO)C[C@H]2C)c1` gave UUG fidelity 1.3 and Env fusion inh 20.5[16.7 µM].
`COC(=O)C[C@H]1CC[C@@H]2[C@H](COc3ccc(NC(=O)Nc4cccc(C)c4)cc3C(=O)N2C)O1` gave UUG fidelity 6.9 and Env fusion inh 28.6[16.7 µM].
Screening C[C@@H]1CCCCO[C@@H](CN(C)C(=O)Nc2ccc(C(F)(F)F)cc2)[C@@H](C)CN([C@H](C)CO)C(=O)c2cc(NC(=O)Nc3ccc(C(F)(F)F)cc3)ccc2O1 returned UUG fidelity -10.9 and Env fusion inh 30.1[16.7 µM].
For C[C@@H]1CN([C@@H](C)CO)C(=O)Cc2cc(NC(=O)C3CC3)ccc2O[C@H]1CN(C)Cc1ccc(C(F)(F)F)cc1 the results were UUG fidelity -3.9 and Env fusion inh 15.4[16.7 µM].
Cn1cnc(S(=O)(=O)N[C@@H]2CC[C@@H](CC(=O)Nc3ccc(-c4ccccc4)cc3)O[C@@H]2CO)c1 was read as UUG fidelity -11.7 and Env fusion inh 10.4[16.7 µM].
Screening COc1ccc(NC(=O)Nc2ccc3c(c2)CC(=O)N([C@@H](C)CO)C[C@H](C)[C@H](CN(C)Cc2ccccc2)O3)cc1 returned UUG fidelity -6.7 and Env fusion inh 19.9[16.7 µM].
C[C@@H]1CN([C@@H](C)CO)C(=O)c2cc(-c3ccncc3)cnc2O[C@H]1CN(C)C(=O)Cc1cccnc1 was read as UUG fidelity 1.4 and Env fusion inh 10.0[16.7 µM].
For O=C(C[C@H]1CC[C@H](NC(=O)c2ccccc2)[C@H](CO)O1)Nc1ccc(-c2ccccc2)cc1 the results were UUG fidelity -3.9 and Env fusion inh 8.4[16.7 µM].
For C[C@H]1CN([C@@H](C)CO)C(=O)CCCn2nncc2CO[C@@H]1CN(C)S(=O)(=O)c1ccc(F)cc1 the results were UUG fidelity -1.1 and Env fusion inh 1.8[16.7 µM].
C[C@H](CO)N1C[C@H](C)[C@@H](CN(C)Cc2ccc(Cl)c(Cl)c2)Oc2c(NC(=O)c3ccc(-c4nccs4)cc3)cccc2C1=O was read as UUG fidelity -2.2 and Env fusion inh 18.5[16.7 µM].
COCC#Cc1ccc2c(c1)O[C@@H](CN(C)Cc1ccccc1)[C@@H](C)CN([C@@H](C)CO)S2(=O)=O was read as UUG fidelity 5.8 and Env fusion inh -19.1[16.7 µM].
`Cc1noc(C)c1S(=O)(=O)N(C)C[C@@H]1OCCCC[C@@H](C)Oc2ccc(NC(=O)Cc3ccccc3)cc2C(=O)N([C@H](C)CO)C[C@@H]1C` gave UUG fidelity -10.9 and Env fusion inh -10.0[16.7 µM].
`Cc1noc(C)c1S(=O)(=O)Nc1ccc2c(c1)C(=O)N([C@H](C)CO)C[C@@H](C)[C@@H](CN(C)S(=O)(=O)c1ccc(F)cc1)OCCCC[C@@H](C)O2` gave UUG fidelity -6.6 and Env fusion inh 7.6[16.7 µM].
`C[C@H]1CN([C@@H](C)CO)C(=O)Cc2cc(NC(=O)CCCCCC(=O)Nc3ccccc3N)ccc2O[C@@H]1CN(C)S(=O)(=O)c1cccs1` gave UUG fidelity 0.0 and Env fusion inh 11.3[16.7 µM].
`C[C@@H]1CCCCO[C@@H](CN(C)C(=O)Nc2ccccc2)[C@H](C)CN([C@@H](C)CO)C(=O)c2cc(NC(=O)CCCN(C)C)ccc2O1` gave UUG fidelity 8.0 and Env fusion inh 3.5[16.7 µM].
Screening CCCN(C)C[C@H]1Oc2cc(C#CC3CC3)ccc2S(=O)(=O)N([C@H](C)CO)C[C@H]1C returned UUG fidelity 2.6 and Env fusion inh 8.1[16.7 µM].
`C[C@H](CO)N1C[C@H](C)[C@@H](CN(C)C(=O)Nc2ccccc2)Oc2c(NC(=O)c3nc4ccccc4s3)cccc2C1=O` gave UUG fidelity 17.8 and Env fusion inh 19.0[16.7 µM].
Screening CNC(=O)C[C@@H]1CC[C@@H]2[C@@H](COc3ccc(NC(=O)c4ccccc4F)cc3C(=O)N2C)O1 returned UUG fidelity 6.3 and Env fusion inh 1.0[16.7 µM].
`C[C@H](CO)N1C[C@H](C)[C@H](CN(C)Cc2ccccn2)Oc2ncc(-c3ccc(F)cc3)cc2C1=O` gave UUG fidelity -19.5 and Env fusion inh -14.0[16.7 µM].
`Cn1cnc(S(=O)(=O)N[C@H]2CC[C@H](CC(=O)Nc3ccccc3)O[C@H]2CO)c1` gave UUG fidelity -5.2 and Env fusion inh -0.5[16.7 µM].
Screening C[C@@H]1CN([C@@H](C)CO)S(=O)(=O)c2ccc(C#CCN(C)C)cc2O[C@H]1CN(C)Cc1ccccn1 returned UUG fidelity -1.2 and Env fusion inh -2.8[16.7 µM].
For CN(C)CC(=O)N[C@@H]1CC[C@@H](CC(=O)NCCN2CCCCC2)O[C@H]1CO the results were UUG fidelity -7.9 and Env fusion inh -21.8[16.7 µM].
Screening O=C(C[C@@H]1C=C[C@@H](NC(=O)Nc2cc(F)ccc2F)[C@H](CO)O1)Nc1ccc(-c2ccccc2)cc1 returned UUG fidelity -5.7 and Env fusion inh -1.4[16.7 µM].
Screening O=C(C[C@H]1C[C@H]2c3cc(NC(=O)NC4CCCC4)ccc3O[C@H]2[C@@H](CO)O1)NCC1CC1 returned UUG fidelity -2.7 and Env fusion inh -9.0[16.7 µM].
`C[C@H]1CN([C@@H](C)CO)C(=O)Cc2cc(NC(=O)Nc3ccc(C(F)(F)F)cc3)ccc2O[C@@H]1CN(C)Cc1ccc(C(F)(F)F)cc1` gave UUG fidelity 24.9 and Env fusion inh 9.6[16.7 µM].
For CC(C)NC(=O)N(C)C[C@H]1Oc2ccc(NC(=O)Nc3ccc(C(F)(F)F)cc3)cc2C(=O)N([C@H](C)CO)C[C@H]1C the results were UUG fidelity -5.6 and Env fusion inh 2.2[16.7 µM].
`N#C[C@@H]1[C@H](c2ccc(-c3ccc(F)cc3)cc2)[C@@H](CO)N1C(=O)Cc1ccccc1` gave UUG fidelity -10.3 and Env fusion inh 27.2[16.7 µM].

Grouped by structure, those above with an aryl methoxy group (4)
COCCOC(=O)N1C(=O)[C@@]2(c3ccccc31)[C@H](C(=O)N1CCc3cc(OC)c(OC)cc3C1)[C@H]1C(=O)O[C@H](c3ccccc3)[C@H](c3ccccc3)N1[C@@H]2c1ccc(O)cc1 was read as UUG fidelity -12.7 and Env fusion inh 9.4[16.7 µM].
Screening COc1cccc(NC(=O)N(C)C[C@@H]2Oc3ncc(C#Cc4ccc(F)cc4)cc3C(=O)N([C@@H](C)CO)C[C@H]2C)c1 returned UUG fidelity 14.9 and Env fusion inh 11.8[16.7 µM].
`COc1cccc(NC(=O)N(C)C[C@@H]2Oc3ncc(C#Cc4ccc(F)cc4)cc3C(=O)N([C@H](C)CO)C[C@H]2C)c1` gave UUG fidelity 1.3 and Env fusion inh 20.5[16.7 µM].
Screening COc1ccc(NC(=O)Nc2ccc3c(c2)CC(=O)N([C@@H](C)CO)C[C@H](C)[C@H](CN(C)Cc2ccccc2)O3)cc1 returned UUG fidelity -6.7 and Env fusion inh 19.9[16.7 µM].

Further results follow.
COc1ccc(S(=O)(=O)N(C)C[C@@H]2Oc3c(NC(=O)NC(C)C)cccc3C(=O)N([C@@H](C)CO)C[C@@H]2C)cc1 was read as UUG fidelity -6.8 and Env fusion inh -27.8[16.7 µM].
For C[C@@H]1CN([C@@H](C)CO)C(=O)c2cc(C#CC3(O)CCCC3)cnc2O[C@H]1CN(C)C(=O)CN(C)C the results were UUG fidelity 4.2 and Env fusion inh -11.8[16.7 µM].
COc1ccc(NC(=O)N(C)C[C@H]2OCCCC[C@H](C)Oc3ccc(NS(=O)(=O)c4ccc(F)cc4)cc3C(=O)N([C@@H](C)CO)C[C@H]2C)cc1 was read as UUG fidelity 4.6 and Env fusion inh -15.9[16.7 µM].
`C[C@H]1CCCCO[C@@H](CN(C)C(=O)Nc2ccc3c(c2)OCO3)[C@@H](C)CN([C@@H](C)CO)C(=O)c2cc(NC(=O)Cc3ccccc3)ccc2O1` gave UUG fidelity -10.0 and Env fusion inh -10.6[16.7 µM].
For C[C@@H]1CN([C@H](C)CO)C(=O)c2cc(NS(=O)(=O)c3ccc(F)cc3)ccc2O[C@@H](C)CCCCO[C@@H]1CN(C)S(C)(=O)=O the results were UUG fidelity 15.9 and Env fusion inh 17.8[16.7 µM].
C[C@H](CO)N1C[C@H](C)[C@@H](CN(C)C(=O)c2ccncc2)Oc2ncc(C3=CCCC3)cc2C1=O was read as UUG fidelity 9.0 and Env fusion inh 23.8[16.7 µM].
C[C@H](NC(=O)C[C@H]1C=C[C@@H](NC(=O)C2CC2)[C@@H](CO)O1)c1ccccc1 was read as UUG fidelity 11.5 and Env fusion inh 2.2[16.7 µM].
For COc1ccc(NC(=O)N(C)C[C@H]2Oc3ncc(C#CC(C)C)cc3C(=O)N([C@H](C)CO)C[C@@H]2C)cc1 the results were UUG fidelity 22.6 and Env fusion inh -11.5[16.7 µM].
For C[C@@H]1CN([C@H](C)CO)C(=O)Cc2cc(NC(=O)CCN3CCOCC3)ccc2O[C@@H]1CN(C)Cc1ccc(Oc2ccccc2)cc1 the results were UUG fidelity -0.9 and Env fusion inh -5.3[16.7 µM].
Screening CCCN(C)C[C@@H]1Oc2cc(C#CCC(C)C)ccc2S(=O)(=O)N([C@H](C)CO)C[C@@H]1C returned UUG fidelity -3.2 and Env fusion inh 2.6[16.7 µM].
C[C@H](CO)N1C[C@H](C)[C@@H](CN(C)C(=O)NC2CCCC2)Oc2cc(-c3cncnc3)ccc2S1(=O)=O was read as UUG fidelity 0.1 and Env fusion inh -6.7[16.7 µM].
`CCCN(C)C[C@@H]1Oc2ncc(C#CC3CCCCC3)cc2C(=O)N([C@H](C)CO)C[C@H]1C` gave UUG fidelity 15.8 and Env fusion inh 6.1[16.7 µM].
For CSCCC(NC(=O)COc1ccccc1)C(=O)OCc1ccc(Cl)cc1 (stereo not given) the results were UUG fidelity -8.4 and Env fusion inh -18.6.
Screening N#C[C@H]1[C@H](c2ccc(-c3ccccc3F)cc2)[C@H](CO)N1C(=O)Cc1ccccc1 returned UUG fidelity -7.6 and Env fusion inh -2.4[16.7 µM].
COc1ccc(S(=O)(=O)N(C)C[C@H]2Oc3ccc(NS(=O)(=O)c4cccs4)cc3CC(=O)N([C@H](C)CO)C[C@@H]2C)cc1 was read as UUG fidelity 16.0 and Env fusion inh -5.1[16.7 µM].

Some of the compounds tested. The share of hits here may be higher or lower than overall.
